# Screening results (PubChem BioAssay)
# Menin MLL FP FL = menin-MLL binding inhibition, fluorescein peptide. Fluorescence polarization, fluorescein-MLL peptide displacement from menin. FP activity change, % at 61.4 µM. 290,000 tested, under 10 active; inconclusive = falling polarisation curve, or a change in total fluorescence; inactive = total fluorescence flat and polarisation flat or rising; no compound was filed as active; the % refers to the polarisation; negative = inhibition;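 also: % of control where 0% means no effect; inhibitors lower the polarisation; unlabelled MLL peptide was the positive control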
# D2 potentiator = positive allosteric modulators of human D2 dopamine receptor. DiscoveRx D2 beta-arrestin cells, luminescence, 90 min; 100% = 57 uM dopamine signal. potentiation, % (concentration not given with the values). actives 0.23% (n = 360,000); active = potentiation of 50% or more; inconclusive = 30% to 50%; inactive = 30% or less;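 also: compound concentration not given in the record; tested on top of an EC20 dose of dopamine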
#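 PathHunter beta-arrestin assay in DiscoveRx D2 cells. Compounds were added with an EC20 of dopamine (50 nM final) for 90 min at 37 deg C. Luminescence was read 1 h after detection reagent, with 57 uM dopamine as the EC100 control.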
# Sfp inh = inhibitors of Bacillus subtilis Sfp phosphopantetheinyl transferase; Q9F4F7; Biochemical Sfp PPTase activity, qHTS; Potency, µM, for the others: max response, negative = inhibition, hits mostly inhibitors; actives 3.5% (n = 310,000); AID 1490; active = well fitted inhibition curve with a large enough effect; inconclusive = small, poorly fitted or top-dose-only effect, or another doubt; inactive = no such curve, though single readings can be large or run the other way;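 also: the enzyme is Sfp with the accession as filed and its product quenches rhodamine fluorescence; potency is read from the fitted curve at half-maximal effect; 0% = enzyme reaction without inhibitor and -100% = no enzyme wells; top concentration of the series not given in the record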
#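 Buffer: 50 mM Hepes-Na pH 7.6, 10 mM MgCl2, 0.01% Nonidet P-40, 0.01% BSA. Enzyme 15 nM, pre-exposed to compound 15 min; substrates then added and fluorescence change tracked over 30 min.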
# gsp agonist = activates gsp, the McCune-Albright syndrome mutation; actives 0.13% (n = 340,000); AID 624287; Potency, µM (doses to about 76.9 µM), inactives show at the top dose activation (cAMP increase), hits mostly activators; gsp mutant cells, cAMP HTRF, 30 min; control for the full effect not named in the record; active = well fitted activation curve with a large enough effect; inconclusive = small, poorly fitted or top-dose-only effect, or another doubt; inactive = no such curve, though single readings can be large or run the other way; cell line not stated here;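 also: phosphodiesterase inhibitor Ro 20-1724 added with compounds to block cAMP breakdown; potency is read from the fitted curve at half-maximal effect; nearly all actives have a fitted effect of over 60% in size; about a fifth of the inactives were tested at one dose only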
#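 Cells stably selected in G418 were plated at 2000/well, grown 16-24 hr, then given compounds in DMSO with the PDE inhibitor […] (300 uM solution added) for 30 min at 37C; cAMP was read by HTRF.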
# ClpP mod = qHTS Assay for Activators of ClpP; ATP-dependent Clp protease proteolytic subunit (Bacillus subtilis (strain 168)), P80244; purified B. subtilis ClpP, FRET peptide cleavage, 20 min; Potency, µM (titrated, usually from 57.5 µM), without a hit: top-dose activity change, negative = active; actives 1.9% (n = 340,000); active = well fitted falling curve with a large enough effect; inconclusive = small, poorly fitted or top-dose-only effect; inactive = no such curve, though single readings can be large or run the other way; also: potency is read from the fitted curve at half-maximal effect; the source files actives as falling curves though it sought activators and does not explain the sign; nearly all actives have a fitted effect of over 65% in size; many hits overshoot -100%
# Target sequence (P80244 whole entry, looked up): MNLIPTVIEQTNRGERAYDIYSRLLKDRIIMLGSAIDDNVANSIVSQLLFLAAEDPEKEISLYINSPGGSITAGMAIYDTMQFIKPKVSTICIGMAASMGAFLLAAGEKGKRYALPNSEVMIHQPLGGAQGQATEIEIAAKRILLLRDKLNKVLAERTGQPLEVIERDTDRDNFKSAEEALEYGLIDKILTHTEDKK
#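 Buffer: 100 mM Tris/HCl pH8, 100 mM KCl, 0.05% low protease BSA, 2.5% glycerol, 0.01% Tween-20. ClpP 10 microg/mL final; 20 min RT; delta FRET normalized to ADEP and DMSO controls.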
# TRPV1 PAM = enhances activation of the human vanilloid receptor TRPV1; actives 0.02% (n = 320,000); potentiation, % at 8.33 µM; TRPV1-expressing cells, Fluo-8 calcium influx, capsaicin EC20 potentiation; host cell line not named in the record; control for the full effect not named in the record; active means potentiation above 80%; inconclusive means 30% to 80%; inactive means below 30%; also: 0% is about no effect
# Target sequence (Q8NER1 whole entry, looked up): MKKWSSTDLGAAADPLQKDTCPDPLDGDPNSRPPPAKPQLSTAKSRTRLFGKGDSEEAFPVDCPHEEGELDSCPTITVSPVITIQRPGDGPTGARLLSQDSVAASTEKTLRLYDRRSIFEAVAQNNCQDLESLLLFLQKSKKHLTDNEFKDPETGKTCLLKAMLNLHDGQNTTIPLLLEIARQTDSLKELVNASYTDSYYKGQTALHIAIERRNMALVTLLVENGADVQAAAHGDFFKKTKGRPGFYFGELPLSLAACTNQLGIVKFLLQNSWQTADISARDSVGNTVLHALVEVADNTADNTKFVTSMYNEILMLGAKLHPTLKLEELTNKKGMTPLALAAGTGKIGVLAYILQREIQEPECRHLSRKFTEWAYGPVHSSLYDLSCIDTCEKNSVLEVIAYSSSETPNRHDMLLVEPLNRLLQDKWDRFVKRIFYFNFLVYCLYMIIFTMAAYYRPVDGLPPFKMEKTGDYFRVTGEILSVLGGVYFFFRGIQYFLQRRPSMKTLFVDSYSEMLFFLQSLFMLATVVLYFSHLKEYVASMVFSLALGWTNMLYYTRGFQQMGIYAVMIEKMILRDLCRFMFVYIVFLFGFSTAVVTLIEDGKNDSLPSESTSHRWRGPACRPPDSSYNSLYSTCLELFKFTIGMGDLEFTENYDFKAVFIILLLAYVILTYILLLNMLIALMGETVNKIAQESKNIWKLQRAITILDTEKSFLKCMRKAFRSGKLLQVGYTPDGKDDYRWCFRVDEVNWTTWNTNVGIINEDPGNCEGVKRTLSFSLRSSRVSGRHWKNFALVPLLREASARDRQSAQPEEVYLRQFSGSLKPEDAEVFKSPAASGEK
#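 Cells expressing TRPV1 were dye-loaded with Fluo-8 and read kinetically: 10 s baseline, 3 min after compound (agonist portion), then 2 min after EC20 capsaicin (allosteric enhancer portion). Calcium-bound dye fluorescence at 480/520 nm.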
# gsp antagonist = antagonists of gsp mutant (McCune-Albright syndrome) | gsp-mutant cells, cAMP HTRF, 30 min; control for the full effect not named in the record | Potency, µM (doses to about 76.9 µM), for the others: at the highest dose activity change, negative = inhibition, usual class: inhibitors | actives 0.4% (n = 340,000) | AID 624288; active = falling curve of any shape with a large fitted effect; inconclusive = falling curve, mostly with a smaller effect; inactive = flat or rising curve; cell line not stated here;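 also: intracellular cAMP measured with PDE inhibitor Ro 20-1724 present during compound exposure; potency is read from the fitted curve at half-maximal effect; % is scaled to controls: 0 for no effect and ±100 for the full control effect; nearly all actives have a fitted effect of over 65% in size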
#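 HTRF cAMP read-out (cAMP-d2 plus anti-cAMP antibody-K in lysis buffer, 30 min RT). Before lysis, cells are exposed to compounds with […] for 30 min at 37C in DPBS containing Ca/Mg, BSA and Tween 20.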
# The depositor's hits bear a star; u = inconclusive; x = not tested or not shown; & = joins results of further samples; [ ] = dose if it differs, or a comment. Compounds were not picked by outcome, and some 5.1% of all compounds hit somewhere here.
SMILES,Menin MLL FP FL,D2 potentiator,Sfp inh,gsp agonist,ClpP mod,TRPV1 PAM,gsp antagonist
COc1cc(OC)c(C(=O)NCc2cccnc2)cc1OC,4.0,-15,20%,6%[15.4 µM],0.7%,-3,13%
COc1ccc(COC[B-](F)(F)F)cc1,x,3,x,-99%,-0.3%,x,x
CC(=O)N(C)c1ccc(NC(=S)NCC(C)C)cc1,3.4,-8,-2%,-30%,1.4%,-3,21%
CCOC(=O)N1CCC2(CC1)CC(=O)c1cc(O)ccc1O2,3.5,-3,13%,26%,0.2%,-5,-2%
COC(=O)c1ccccc1NC(=O)c1ccc(Cn2cc(Cl)cn2)o1,1.9,-10,12%,-11%,39%,-24,5%
COc1cc(C2Nc3ccccc3NC3=C2C(=O)CC(C)(C)C3)cc(OC)c1OC (stereo unspecified),-1.5,-4,26%,13%,x,-5,-3%
Cc1cc(C)cc(NC(=S)/N=C(\N)Nc2nc(C)c3ccccc3n2)c1,4.5,-9,12%,-24%,-7.2%,16,2%
COc1ccc(C(C(=O)NC(C)(C)C)N(CC2CCCO2)C(=O)CCC(=O)Nc2cc(C)on2)cc1 (stereo unspecified),0.7,-11,13%,0%,-1.7%,u,2%
COc1ccccc1NS(=O)(=O)c1cc(NC(=S)NCCN2CCOCC2)ccc1N1CCOCC1,3.8,14,-106%,1%,1.4%,-13,8%
CN1C(=O)Nc2cccc3cccc1c23,-7.3,0,-5%,-73%[inhibitor],1.0%,-21,13%
COc1ccc(NC(=O)Nc2cnccn2)cc1OC,-1.7,0,14%,-13%,-5.4%,-2,-9%
CC(OC(=O)c1cc(O)c2ccccc2c1O)C(=O)Nc1ccc(C(N)=O)cc1 (stereo unspecified),x,1,x,-2%[15.4 µM],x,-2,-9%
CC(=O)c1ccc(-n2ccc(=O)cc2)cc1,-0.1,-3,0%,22%,-3.0%,-2,7%
CCCN1C(=O)C(NC(=O)c2ccncc2)(C(F)(F)F)C2=C1CC(C)(C)CC2=O (stereo unspecified),0.9,-6,16%,-2%,-1.0%,-7,6%
Cc1ccc2nc(NC(=O)c3cccc(-c4cc5ccccc5oc4=O)c3)sc2c1,0.3,-18,-27%,11%,111%,0,-3%
Nn1c(Cc2cccc3ccccc23)nnc1SCCOc1ccc(Br)cc1,-0.1,2,19%,6%,-0.5%,-6,u
O=C(Nc1ccc(F)cc1)c1cccnc1NCCc1ccccc1,2.1,-9,9%,2%[15.4 µM],-0.3%,-7,11%
O=C(OCC(=O)N1CCN(C(=O)c2ccco2)CC1)c1ccccc1O,-0.2,-4,-1%,-13%,1.1%,0,11%
CC(C)(C)OC(=O)N(Cc1ccccc1)Cc1ccccc1OCc1cccc(NC(=O)c2ccccc2)c1,x,-3,x,x,-17%,x,0%
N#Cc1c(=O)c2nc(NCCCO)ncc2n2c(=O)c3ccccc3[nH]c12,u,0,0%,11%[15.4 µM],x,-2,-6%
O=C(Nc1ccccc1-c1ccccc1)c1ccc(Br)o1,8.0,-3,4%,-6%,-6.5%,4,0%
C[C@@H]1NC(=O)c2cc([N+](=O)[O-])cc(I)c2OCC[C@@H](C(N)=O)NC(=O)[C@H](CCCCN)NC1=O,1.1,-7,-16%,x,1.7%,1,6%
COc1ccc(-c2ccc(SCC(=O)N3CCOCC3)nn2)cc1,1.1,-9,13%,24%,-2.6%,-22,-2%
O=C(Nc1ccccc1)c1ccccc1NC(=O)C(F)(F)F,5.0,2,16%,2%,2.9%,-2,32µM*
C[C@@]12C(=O)Nc3ccc(F)cc3C(=O)N1[C@H]1c3cc(Cl)ccc3OC[C@@H]1[C@@H]2c1ccccc1,x,-14,x,x,-21%,x,-6%
Fc1ccc(NCc2nnc3n2CCCCC3)cc1,-7.5,-1,20%,0%,2.8%,1,12%
CC1CN(C(=O)COc2coc(CN3CCc4ccccc4C3)cc2=O)CC(C)O1 (stereo unspecified),x,6,x,-1%[15.4 µM],0.3%,7,12%
COC(=O)c1ccc(/C=C2\SC(=S)N(CCCC(=O)NCCCN3CCOCC3)C2=O)cc1,x,4,-3%,-7%[15.4 µM],x,0,-44%
COc1ccccc1C1CCN(c2ccc([N+](=O)[O-])cn2)CC1,0.8,-1,-11%,-5%[15.4 µM],x,x,-2%
Cc1cc(C)n(-c2cc(N3CCN(C(=O)c4ccc(C(C)(C)C)cc4)CC3)ccc2[N+](=O)[O-])n1,2.2,3,2%,-1%,-0.4%,6,u
CCn1c(COc2ccccc2C)nnc1SCc1nc2ccccc2c(=O)[nH]1,-0.4,x,19%,x,x,-6,x
Cc1ccc(/C=N/NC(=O)c2ccoc2C)o1,5.6,8,-1%,12%,-2.5%,2,-2%
CC[C@H]1c2[nH]c3ccc(C(C)C)cc3c2[C@@H]2CCN3C(=O)CCC[C@H]1[C@H]23,x,-4,x,x,-5.2%&-25%,x,-4%
CC(=O)NC1C(=O)N(CCN2CCOCC2)c2ccc(F)cc21 (stereo unspecified),x,-9,71µM*,5%,-3.3%,17,9%
CCOc1ccc(CN2CCN(Cc3cccn3-c3cccnc3)CC2CCO)cc1 (stereo unspecified),-1.2,-5,1%,-69%[inhibitor],0.2%,-8,16%
CC(Oc1ccccc1)C(=O)OCC(=O)N1CC(=O)Nc2ccccc21 (stereo unspecified),0.5,-14,8%,-4%[15.4 µM],x,11,9%
Cc1ccc(CS(=O)(=O)CC(C)(O)c2ccccc2)cc1 (stereo unspecified),-7.3,-3,15%,-12%,-0.2%,0,6%
Cc1ccsc1/C=C1/SC(=O)N(CC(=O)N2CCOCC2)C1=O,7.6,-18,3%,0%,0.5%,-20,-30%
Cc1ccc(NC(=O)/C(=C\c2ccc3c(c2)OCO3)NC(=O)c2ccco2)cc1,2.8,-30,20%,-53%[inhibitor],-2.3%,18,0%
O=C1C(Cl)=C(N2CCCCC2)C(=O)N1c1ccccc1,3.6,2,-11%,3%,-0.5%,-22,-5%
CC(C)(C)OC(=O)NCCCC[C@H](NC(=O)c1[nH]cnc1C(=O)Nc1ccc(Cl)cc1)C(=O)OC(C)(C)C,2.3,-2,13%,-41%[inhibitor],u,5,-5%
COc1cccc(-c2nn(C)c3sc(C(=O)NCc4ccccn4)cc23)c1,1.9,-27,5%,-31%[inhibitor],28µM*,-11,10%
Cc1cc(C)c(NC(=O)CN(C)CC(=O)N(C)CC(=O)Nc2c(Cl)cccc2Cl)c(C)c1,x,-1,x,-28%,0.9%,-21,9%
CC(C)C(NS(=O)(=O)c1cccs1)C(=O)NCCN1CCN(c2ccccc2)CC1 (stereo unspecified),7.0,-5,17%,10%,5.2%,5,0%
COc1ccc2cc(CN(CCc3ccccc3)Cc3nnnn3Cc3ccco3)c(=O)[nH]c2c1,10,0,-26%,u,u,-1,-3%
COc1ccc(C2C(C(=O)N3CCOCC3)CCC(=O)N2c2cc(OC)c(OC)c(OC)c2)cc1 (stereo unspecified),3.1,-8,4%,-38%[inhibitor],1.6%,-49,2%
CCCCOC(=O)c1ccc(OC(=O)N2CCOCC2)cc1,0.9,-12,4%,u,0.7%,-29,-6%
Cc1ccc(C)c(/C=N/n2cc(-c3ccccc3)[nH]c2=S)c1,-6.0,-20,4%,-8%[15.4 µM],x,-8,-22%
CC1Cc2ccccc2N1C(=O)CSc1nc2ccccc2n1CC(=O)N1CCOCC1 (stereo unspecified),-1.4,-10,-1%,5%,-2.1%,6,-8%
C[C@@H]1CN([C@@H](C)CO)C(=O)CCCn2nncc2CO[C@@H]1CN(C)C(=O)Nc1ccc2c(c1)OCO2,x,6,x,22%,-0.4%,x,x
# Next section
SMILES,Menin MLL FP FL,D2 potentiator,Sfp inh,gsp agonist,ClpP mod,TRPV1 PAM,gsp antagonist
CC(=O)Oc1ccc(C(=O)Nc2ccc(S(=O)(=O)NCC3CCCO3)cc2)cc1 (stereo unspecified),1.5,-8,16%,4%,x,7,2%
CCCCCCCC(=O)OC(CN1CCCCCC1)CN1CCCC1=O (stereo unspecified),0.9,-14,u,-1%[15.4 µM],-3.1%,-3,-2%
CCOC(=O)C1CCCN(C(=S)Nc2ccc(S(=O)(=O)N3CCOCC3)cc2)C1 (stereo unspecified),x,-15,x,-2%[15.4 µM],0.6%,x,1%
O=C(NCCc1ccccc1)C1CCCN1C(=O)Nc1ccc(Cl)cc1 (stereo unspecified),-0.2,0,1%,-19%,-1.0%,0,3%
O=C(c1cccs1)c1ccc(-c2cccs2)s1,7.3,11,u,-9%,-29%,-9,-1%
CN(C)S(=O)(=O)c1ccc(Cl)c(NC(=O)CSc2nc3c(cc2C#N)C(=O)CC(C)(C)C3)c1,5.6,-10,-25%,0%[15.4 µM],u,2,-14%
Cc1ccc(C(=O)NC(=C(Cl)Cl)S(=O)(=O)c2ccc(Cl)cc2)cc1,-1.8,-15,14%,-39%[inhibitor],-1.2%,-11,-18%
Cc1cc(C)cc(NC(=O)CSc2nnc(Cn3c(=O)sc4ccccc43)n2C)c1,0.0,-9,16%,-55%[inhibitor],-0.2%,4,2%
COc1ccc(NC(=O)c2c[nH]c(=O)n(-c3ccc(C)c(C)c3)c2=O)c(OC)c1,x,1,x,10%,1.4%,x,1%
CS(=O)(=O)N1CCc2cc(C(=O)Nc3ccccc3Cl)ccc21,0.8,-3,6%,-10%,x,-10,-13%
CCCCCCn1c(SCC(C)C)nc2c1c(=O)[nH]c(=O)n2C,3.3,-19,7%,12%,-4.9%,-12,0%
Cc1nc(CNS(=O)(=O)c2cc([N+](=O)[O-])ccc2C)cs1,3.0,-6,-3%,32%,0.2%,-37,14%

# 3 neighbouring records out of the list so far, quoted:
SMILES,Menin MLL FP FL,D2 potentiator,Sfp inh,gsp agonist,ClpP mod,TRPV1 PAM,gsp antagonist
CN(C)S(=O)(=O)c1ccc(Cl)c(NC(=O)CSc2nc3c(cc2C#N)C(=O)CC(C)(C)C3)c1,5.6,-10,-25%,0%[15.4 µM],u,2,-14%
Cc1ccc(C(=O)NC(=C(Cl)Cl)S(=O)(=O)c2ccc(Cl)cc2)cc1,-1.8,-15,14%,-39%[inhibitor],-1.2%,-11,-18%
Cc1cc(C)cc(NC(=O)CSc2nnc(Cn3c(=O)sc4ccccc43)n2C)c1,0.0,-9,16%,-55%[inhibitor],-0.2%,4,2%
